Bioassay records (PubChem)
Cruzain Triton – blocks cruzain activity in presence of Triton detergent. Potency, µM, for the others: max response, negative = inhibition, usual class: inhibitors. 0.43% of 200,000 active. AID 1478. purified cruzain, Z-FR-AMC fluorescence, 0.01% Triton;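 also: plate controls were neutral wells for no effect and buffer without enzyme for full effect; nearly all actives have a fitted effect of over 40% in size; top concentration of the series not given in the record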
Target sequence (P25779 123-467 limits assumed): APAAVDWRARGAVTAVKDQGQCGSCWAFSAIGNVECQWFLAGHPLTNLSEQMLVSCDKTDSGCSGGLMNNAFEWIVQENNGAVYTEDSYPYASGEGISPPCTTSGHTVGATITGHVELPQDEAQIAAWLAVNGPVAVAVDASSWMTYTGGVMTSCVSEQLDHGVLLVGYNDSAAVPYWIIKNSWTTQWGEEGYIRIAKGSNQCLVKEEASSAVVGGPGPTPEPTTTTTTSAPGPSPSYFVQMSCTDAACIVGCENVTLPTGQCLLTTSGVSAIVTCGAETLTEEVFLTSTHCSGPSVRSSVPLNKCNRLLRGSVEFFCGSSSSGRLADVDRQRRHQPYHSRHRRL
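Detergent-containing arm of a paired screen for aggregation-based inhibition: 0.01% Triton X-100 present. Cruzain at 1.5 nM cleaved 2 uM Z-FR-AMC at pH 5.5 with 5 mM DTT; AMC fluorescence gain over 60 s measured activity.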
Cruzain inh noDet – blocks cruzain activity in detergent-free assay; P25779; purified cruzain, Z-FR-AMC fluorescence, no detergent; Potency, µM, for inactives: max response, negative = inhibition, usual class: inhibitors; 2.3% of 200,000 active;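 also: plate controls were enzyme without inhibitor for no effect and buffer without enzyme for full effect; nearly all actives have a fitted effect of over 40% in size; top concentration of the series not given in the record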
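Detergent-free condition (0.00005% Triton X-100) in acetate buffer pH 5.5 with DTT. 1.5 nM enzyme and compound were pre-mixed 15 min, then 2 uM Z-FR-AMC substrate added; reaction progress from fluorescence change between first and third reads (60 s).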
RE007 growth inh – less growth of the S. pombe RE007 Vpr strain; S. pombe RE007 Vpr strain, BacTiter-Glo ATP luminescence, 24 h; control for the full effect not named in the record; Potency, µM (highest dose often 92.2 µM), for inactives: top-dose activity change, negative = less growth; 0.21% of 360,000 active; AID 651644; active = well fitted falling curve with a large enough effect; inconclusive = small, poorly fitted or top-dose-only effect; inactive = no such curve, though single readings can be large or run the other way;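 also: % is scaled to controls: 0 for no effect and ±100 for the full control effect; nearly all actives have a fitted effect of over 50% in size; the assay follows cell death caused by Vpr and the record does not say whether a fall means rescue or toxicity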
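Fission yeast strain RE007, carrying one chromosomally integrated HIV-1 vpr copy, was seeded at OD 0.01 in PMG+AL medium with 23 nL pinned compound. After 24 h at 30 °C and 99% humidity, viability was read by BacTiter-Glo luminescence.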
NS1 function inh – influenza NS1 inhibition | S. cerevisiae slowed by influenza A NS1, growth recovery by OD600 | Potency, µM (highest dose often 46.1 µM), for inactives: at the highest dose activity, positive = more growth | 0.4% of 270,000 active | AID 2326; active means well fitted rising curve with a large enough effect; inconclusive means small, poorly fitted or top-dose-only effect; inactive means no such curve, though single readings can be large or run the other way; also: nearly all actives have a fitted effect of over 50% in size
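Compounds were scored for reversing the slow growth caused by influenza A NS1 in S. cerevisiae, measured by optical density at 600 nm. Assay medium contained 2% galactose at pH 6.0; NS1-free yeast of the same strain were the positive control.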
Marburg entry inh – inhibitors of Marburg virus binding or cell entry. Marburg virus pseudotyped entry inhibition, cell reporter; control for the full effect not named in the record; about a third of the inactives were read at about 46 µM. Potency, µM (series often up to 37.8 µM), inactives show top-dose activity change, negative = inhibition, usual class: inhibitors. 1.8% of 300,000 active; active = well fitted inhibition curve with a large enough effect; inconclusive = small, poorly fitted or top-dose-only effect, or effect the other way; inactive = flat fitted curve, though single readings scatter; tested in HEK293 cells; about a fifth of its hits are not listed in these tables; also: % is scaled to controls: 0 for no effect and ±100 for the full control effect; luciferase read-out
StopGo reporter – lowers the luciferase signal of an FMDV 2A StopGo reporter. human cells with a luciferase reporter of 2A StopGo recoding; control for the full effect not named in the record. Potency, µM (highest dose often 57.9 µM), for the others: at the top dose signal change, negative = less light. 1.2% of 410,000 active. AID 1159524; active = well fitted falling curve with a large enough effect; inconclusive = small, poorly fitted or top-dose-only effect; inactive = no such curve, though single readings can be large or run the other way; tested in HEK293T cells; also: % is scaled to controls: 0 for no effect and ±100 for the full control effect; nearly all actives have a fitted effect of over 45% in size; luciferase light after 4 h
Lassa entry inh – Lassa virus entry inhibition; Lassa virus pseudotype entry inhibition, cell reporter; control for the full effect not named in the record; Potency, µM (titrated, usually from 37.9 µM), for inactives: at the top dose activity change, negative = inhibition, most hits filed as inhibitors; 1.2% of 300,000 active; AID 540256; active means well fitted inhibition curve with a large enough effect; inconclusive means small, poorly fitted or top-dose-only effect, or effect the other way; inactive means flat fitted curve, though single readings scatter; tested in HEK293 cells; also: % is scaled to controls: 0 for no effect and ±100 for the full control effect; nearly all actives have a fitted effect of over 50% in size; luciferase read-out
SARS PLP yeast – blocks SARS-CoV papain-like protease in a yeast assay | 0.19% of 330,000 active | Potency, µM (top dose mostly 32.9 µM), for the others: top-dose activity, positive = growth rescue | S. cerevisiae expressing SARS-CoV PLpro, growth rescue; control for the full effect not named in the record; active means well fitted rising curve with a large enough effect; inconclusive means small, poorly fitted or top-dose-only effect; inactive means no such curve, though single readings can be large or run the other way; also: 0% is about no effect; nearly all actives have a fitted effect of over 55% in size; growth read by luminescence after 48 h
Starred values were filed as active, the others as inactive; ? = inconclusive; · = no result given; & = joins results of further samples; ! = repeats disagree; [ ] = another dose, or the depositor's remark. Unless noted, calls follow the shape of the dose curve; as a rule, active = well fitted curve in the direction sought with a large enough effect; inconclusive = small, poorly fitted or top-dose-only effect, or another doubt; inactive = no such curve, though single readings can be large; an effect the other way counts as inactive or inconclusive. Potency is read from the fitted curve at half-maximal effect.

SMILES	Cruzain Triton	Cruzain inh noDet	RE007 growth inh	NS1 function inh	Marburg entry inh	StopGo reporter	Lassa entry inh	SARS PLP yeast
CCNc1nc(NCC)n2c(SCC(=O)c3ccc(C(C)C)cc3)nnc2n1	-2.1%	-11%	25%	17%	-5%	0%	16%	11%
Cc1ccc(S(=O)(=O)Cc2ccc(C(=O)N3CCN(c4ccccn4)CC3)o2)cc1	-6.6%	5%	-4%	-19%	-1%	0%	·	-1%
Cc1ccc(S(=O)(=O)Nc2cc(C(=O)O)ccc2N2CCCCC2)cc1	-1.6%	-3%	16%	?	12%	5%	?	7%
Cc1c(C(C)C)c(=O)n(-c2ccc(S(=O)(=O)NCc3ccccc3)cc2)n1C	·	·	-5%	·	·	?	2µM*	-2%
NCCc1nnc(SCC(N)=O)o1	5.0%	6%	0%	4%	10%	15%	10%	-1%
O=Nc1c2nc3ccccc3n(O)c-2c2ccccc12	-3.8%	0%	·	-78%	0%	·	·	-38%
O=C(NNS(=O)(=O)c1ccc(F)cc1)c1ccccc1F	·	·	-5%	5%	·	27%	·	-5%
Cc1cccc(OCc2nnc(SCC(=O)N3c4ccccc4Sc4ccc(Cl)cc43)o2)c1	-1.8%	13µM*	-1%	12%	?	-29%	-11%	-9%
CCn1c(SCC(=O)N/N=C/c2cc(OC)c(OC)c(OC)c2)nc2ccccc21	-3.9%	-4%	1%	-16%	?	25µM*	-16%	27%
CCc1ccccc1NC(=O)CNC(=O)c1cccc(S(=O)(=O)N2CCN(Cc3ccccc3)CC2)c1	·	·	1%	·	?	-19%	-18%	0%
CC1Cc2ccccc2N1C(=O)c1ccc2snnc2c1 (stereo not given)	-2.8%	-1%	-4%	3%	?	·	7%	0%
CCOc1ccc(C(C)=O)cc1CSc1nnc(-c2ccoc2C)n1N	-2.6%	-13%	13%	-7%	?	15%	0%	-12%
COc1ccc(OCC(=O)OCC(=O)Nc2cc(S(=O)(=O)N3CCOCC3)ccc2Cl)cc1	·	·	-19%	·	15%	-5%	-9%	1%
CCc1nn2c(=O)cc(COC(=O)c3ccccc3NC(=O)C3CCCCC3)nc2s1	0.1%	2%	·	·	·	31%[activator]	3%[46.1 µM]	·
CC(C)=CC(=O)N1CCCC(N2CCN(c3ccc(F)cc3)CC2)C1 (stereo not given)	·	·	3%	-2%	·	-11%	·	-2%
CNC(=O)c1cc(C(=O)c2c(Cl)cccc2Cl)c[nH]1	·	·	19%	5%	-4%[46.1 µM]	10%	-4%	0%
CN1CCN(C(=S)Nc2ccc(Oc3ccccc3)cc2)CC1	·	·	-7%	-8%	9%[46.1 µM]	14%	-9%[46.1 µM]	0%
COc1cc(C(=O)NCC(=O)N2CCN(S(=O)(=O)c3ccccc3)CC2)cc(OC)c1OC	·	·	6%	·	0%[46.1 µM]	-4%	4%	1%
CCC1(C)Cc2c(sc(NC(=O)CCC(=O)O)c2C#N)CO1 (stereo not given)	3.3%	-7%	30%	4%	9%	-13%	4%	2%
CC(C)CC(=O)Nc1nnc(SCC(=O)Nc2ccc(F)cc2)s1	·	·	3%	·	-3%[46.1 µM]	?	-12%[46.1 µM]	0%
CCOC(=O)N1CCc2c(sc3c2C(=O)NC(c2ccccc2)N3)C1 (stereo not given)	-12%	-1%	0%	-18%	3.2µM*	?	?	0%
CCCCCOC(=O)C1[C@H]2C(=O)N(CCCOC)C[C@]23C=C[C@H]1O3 (stereo not given in full)	-21%	?	10%	-2%	1%	27%	0%	-8%
Cc1ccc(Cn2c(C(C)Nc3nc(-c4ccc(C)cc4)cs3)nc3cc(Cl)c(Cl)cc32)cc1 (stereo not given)	·	·	8%	19%	·	-12%	·	-2%
Cc1cc(=O)[nH]c(SCC(=O)Nc2c(C)n(C)n(-c3ccccc3)c2=O)n1	·	·	4%	·	-22%	-19%	2%	1%

Quoted at random: three entries already listed
SMILES	Cruzain Triton	Cruzain inh noDet	RE007 growth inh	NS1 function inh	Marburg entry inh	StopGo reporter	Lassa entry inh	SARS PLP yeast
O=C(NNS(=O)(=O)c1ccc(F)cc1)c1ccccc1F	·	·	-5%	5%	·	27%	·	-5%
CN1CCN(C(=S)Nc2ccc(Oc3ccccc3)cc2)CC1	·	·	-7%	-8%	9%[46.1 µM]	14%	-9%[46.1 µM]	0%
Cc1ccc(S(=O)(=O)Cc2ccc(C(=O)N3CCN(c4ccccn4)CC3)o2)cc1	-6.6%	5%	-4%	-19%	-1%	0%	·	-1%

Other records.
SMILES	Cruzain Triton	Cruzain inh noDet	RE007 growth inh	NS1 function inh	Marburg entry inh	StopGo reporter	Lassa entry inh	SARS PLP yeast
N#C/C(=C\c1ccc(Cl)cc1)c1n[nH]c(Cn2cncn2)n1	10.0%	0%	19%	4%	-14%	0%	-5%	13%
CC(OC(=O)C1CCN(c2ccc(C(F)(F)F)cn2)CC1)C(=O)c1ccccc1 (stereo not given)	·	·	5%	·	-18%	-22%	-8%	·
CCOC(=O)c1ccc(NC(=O)CSc2nc3cccnc3n2C)cc1	-3.5%	?	15%	4%	?	16µM*	-28%	-4%
O=C(O)c1cccc(CN2C(=O)CSC2=O)c1	8.8%	-6%	15%	22µM*	13%	6%	4%	4%
O=C(Nc1scc(-c2ccccc2)c1C(=O)O)c1ccccc1F	·	·	7%	-54%	?	-6%	-11%[46.1 µM]	-4%
O=C(CNC(=O)c1ccco1)N=Nc1c(O)[nH]c2ccc(Br)cc12	·	·	-2%	-7%	·	-6%	·	-1%
CCOC(=O)C1=NN(C(=O)Nc2cccc(C(F)(F)F)c2)C2C(=O)N(c3cccc(C(F)(F)F)c3)C(=O)C12 (stereo not given)	-3.3%	-8%	7%	6%	-3%	-4%	?	3%
CC(C)CN(C(=O)c1ccc(=O)n(C)n1)c1nc2ccccc2s1	-4.5%	?	-22%	-34%	24%	19%	?	-5%
COc1ccc(-c2cn(-c3ccc(C)cc3)c(=O)n2CC(=O)Nc2ccc(OC)c(OC)c2)cc1	-8.8%	?	-10%	7%	-9%	21%	?	2%
CCCCn1c(=N)c(S(=O)(=O)c2ccc(Cl)cc2)cc2c(=O)n3cccc(C)c3nc21	-1.2%	-15%	·	·	3%[46.1 µM]	?	20%[46.1 µM]	·
COc1ccc([C@H]2C=C3CN(C(=O)OC(C)(C)C)S(=O)(=O)[C@H]3C[C@H]2OC(=O)c2cccs2)cc1	·	·	4%	9%	·	-20%	·	-2%
Cc1ccc(N(CC(=O)NCc2ccccc2)C(=O)c2csnn2)cc1	·	·	9%	21%	18%[46.1 µM]	38%[activator]	-3%	18%
Cc1ccc(NC(=O)CCC(=O)c2cccs2)nc1	·	·	-1%	·	8%	84%[activator]	7%[46.1 µM]	0%
O=C1/C(=C\Nc2ccc(OC(F)(F)F)cc2)CCN1c1ncccn1	-7.5%	?	8%	8%	?	27%	25%	-12%
Cc1cc(/C=N/n2cnnc2)c(C)n1-c1ccc2ncccc2c1	·	·	-29%	9%	-1%[46.1 µM]	-14%	-1%	·
O=C(/C=C/c1ccc(O)cc1)c1ccc(O)cc1O	-15%&-14%&-13%&-8.9%	-20%&-14%&-12%&-7%	6%[18.4 µM]	-41%&-25%	10µM*!	?	?	-14%
CCSc1nnc2n(-c3ccc(OC)cc3)c(=O)c3c4c(sc3n12)CCCC4	-6.1%	7%	11%	7%	12%	-29%	0%	-11%
O=C(OCC(=O)N1CCCc2ccccc21)c1cccc(S(=O)(=O)N2CCc3ccccc32)c1	-3.8%	?	4%	5%	?	-14%	-14%	20%
Cc1ccccc1NC(=O)c1sc2nc3n(c(=O)c2c1C)CCC3	-0.7%	-2%	·	·	·	10%	10%[46.1 µM]	·
Cc1cc(C)nc(Nc2ccc(N3CCCC3)cc2)n1	-3.6%	32µM*	9%	-5%	9%	0%	7%	3%
Cc1ccc(S(=O)(=O)NCC(=O)N(CC(=O)NCc2ccc(F)cc2)CC2CCCO2)cc1 (stereo not given)	·	·	23%	-3%	-8%[46.1 µM]	-14%	-19%	0%
Clc1ccc(C2=Nn3c(nnc3-c3cccs3)SC2)cc1	-8.6%	7.9µM*	-7%	8%	0%	-24%	11%	10%
CN(C)C=NC(=O)c1[nH]c2ccc(Cl)cc2c1-c1ccccc1	·	·	2%	3%	·	?	·	-5%
Cc1ccccc1NS(=O)(=O)c1cc(C(=O)N2CCc3ccccc3C2)ccc1C	3.9%	0%	-8%	6%	?	23%	?	1%

Single records, as listed above:
CCn1c(SCC(=O)N/N=C/c2cc(OC)c(OC)c(OC)c2)nc2ccccc21 is listed with Cruzain Triton = -3.9%; Cruzain inh noDet = -4%; RE007 growth inh = 1%; NS1 function inh = -16%; Marburg entry inh = ?; StopGo reporter = 25µM*; Lassa entry inh = -16%; SARS PLP yeast = 27%
O=Nc1c2nc3ccccc3n(O)c-2c2ccccc12 is listed with Cruzain Triton = -3.8%; Cruzain inh noDet = 0%; RE007 growth inh = ·; NS1 function inh = -78%; Marburg entry inh = 0%; StopGo reporter = ·; Lassa entry inh = ·; SARS PLP yeast = -38%
